Mtb hypoxia rep = PubChem AID 1159583; M. tuberculosis hypoxia-regulated fluorescent reporter, fluorescence; fluorescence inhibition, % (concentration not given with the values); 300,000 compounds, 0.1% hits;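 active = 35 to 45% if threefold the growth effect, above 45% if 1.5-fold the growth effect; inactive = the rest, general growth blockers included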;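 also: wells of about 50 µL received 100 nL stock; 0% = vehicle wells and 100% = reference inhibitor wells; whole bacteria with a GFP reporter of the hypoxia response; strong numbers were not always called active; many hits fall short of the cut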
RN4220 kill = growth inhibition of S. aureus RN4220, primary screen, OD600. 16 h. inhibition, % (no concentration beside the values). 330,000 compounds, 0.33% hits;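 active = z-score of -3 or lower and OD600 up to 0.18 on both plates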;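 also: plate controls were untreated cells for no effect and reference antibiotic for full effect; stock transfer was 100 nL into about 80 µL; one replicate is shown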
Sa ugtP lethal = growth inhibition of ugtP-null S. aureus, primary screen, RN4220 ugtP deletion, OD600; 330,000 compounds, 0.54% hits; growth inhibition, % (no concentration beside the values); AID 1259309, 2017; 16 h; some inactives read as strong as hits;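 active = z-score under -3 and OD600 up to 0.15 on both plates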;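 also: plate controls were untreated wells for no effect and antibiotic for full effect; wells of about 80 µL received 100 nL stock; the first replicate is given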
Autofluor counter = counter-screen for toxin protease inhibitors: compound fluorescence | 360,000 compounds, 3.1% hits | fluorescence intensity (concentration not given with the values) | compound autofluorescence counterscreen, microsphere flow cytometry; stronger effect = higher value;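 active = at least 3 SD above the mean of all compounds, about 16000 in these data; inconclusive = too few beads counted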;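 also: 100 nL of 1 mM stock went into each well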
BJeLR viability = MLPCN primary cell-based screen for lethality selective to Ras in HRASV12 cells | 300,000 compounds, 0.17% hits | inhibition, % (concentration not given with the values) | BJeLR (HRASV12) viability, CellTiter-Glo ATP luminescence, 48 h; reference of the scale not given here;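 active = replicate mean above 50%; inconclusive = above 50% but judged a plate artefact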;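 also: 50 nL library stock added to about 25 µL; numbers are from one replicate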
PrP UTR inh = inhibition of PrP 5' UTR reporter expression; cell-based PrP 5' UTR mRNA reporter, plate reader; inhibition, % (concentration not given with the values); 340,000 compounds, 0.35% hits; AID 488862, 2010;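 active = every replicate at 50% or more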;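 also: 0 = median of the neutral control wells; tested in H4 reporter cells; numbers are from one replicate; inactives centre near -14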
Mtb hypoxia rep growth = further read-out of Mtb hypoxia rep, marked with its call; growth inhibition, %; measured here: M. tuberculosis growth (absorbance);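 0% = vehicle and 100% = reference antibiotic; read after six days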
Active calls of the source: *; ? = inconclusive; . = no result given; & = joins results of further samples.

Value order – Mtb hypoxia rep	Mtb hypoxia rep growth	RN4220 kill	Sa ugtP lethal	Autofluor counter	BJeLR viability	PrP UTR inh
1. Cc1snc(S(=O)(=O)Cc2ccccc2Cl)c1C#N
  1	15	7.7	5	21018*	-6	-17
2. COC(=O)C1=C(c2cc3ccccc3s2)C[C@@H]2CC[C@H]1N2C(=O)NCCCOC(C)C
  11	4	-11	-5	3605	-1	-10
3. CN1CCCN(Cc2ccccc2C(F)(F)F)CC1
  -2	-7	4.0	4	10319	0	-16
4. CCCN1CCn2c3c(c4cc(Br)ccc42)CCCC31 (stereo unspecified)
  -15	-3	-3.5	33	2995	18	-21
5. O=C(N/N=C/c1cccnc1)c1cccc(Cl)c1
  .	.	.	.	3610	-12	-18
6. C/C(=N/NC(=O)CNC(=O)c1cccnc1)c1ccc(Cl)c(Cl)c1
  .	.	.	.	3191	-14	-20
7. CSc1nsc(SC)c1NC(=O)Nc1ccccc1C
  -5	-3	-0.5	1	4577	-8	-24
8. CN(C(=O)c1ccccc1NC(=O)C(F)(F)F)c1ccccc1
  8	-1	1.9	11	19216*	-4	-13
9. CCOC(=O)N1CCN(C(=O)C2CCCN(c3ncnc4c3sc3cccc(F)c34)C2)CC1 (stereo unspecified)
  4	-1	2.4	-1	5262	.	1
10. COc1ccccc1Nc1nc2ccc(C)cc2cc1C#N
  .	.	.	.	?	-3	-8
11. O=C(NCC1COc2ccccc2O1)Nc1ccccc1F (stereo unspecified)
  -2	4	-2.4	-6	3712	-2	-28
12. Cn1cccc1Cc1nnc(SCC(=O)N2CCOCC2)n1-c1ccc(F)cc1
  .	.	0.9	-14	6062	-3	8
13. CCOC(=O)c1sc2nc(-c3cccnc3)ccc2c1N
  -4	11	3.2	2	4226	-2	-108
14. Cc1nc(-c2ccccc2)sc1C(N)=O
  6	7	0.1	-1	4642	0	-8
15. O=C(COC(=O)COc1ccc(Cl)cc1)NCCCc1ccccc1
  7	0	8.1	6	.	.	.
16. COc1ccc(CNC(=O)C2CC(c3cc(C(F)(F)F)cc(C(F)(F)F)c3)=NO2)cc1 (stereo unspecified)
  -1	3	3.6	-3	3595	6	-20
17. Cc1ccc(C)c(NS(=O)(=O)c2c(C)[nH]c(C)c2C(=O)N2CCCCC2)c1
  5	12	-0.9	-9	5940	14	-11
18. CCSc1nc2c(c(=O)[nH]c(=O)n2C)n1CC(O)COc1ccccc1C (stereo unspecified)
  3	15	5.7	0	20886*	2	-15
19. O=C(NC(=S)N1CCc2ccccc21)c1ccco1
  -6	-6	8.1	13	2869	2	-21
20. O=C(NNc1c2ccccc2nc2ccccc12)c1ccccc1O
  .	.	18	15	1854	-4	-17
21. N#C/C(=C\c1ccc(N2CCOCC2)o1)C(=O)Nc1ccc(O)cc1
  -19	1	3.5	-9	4565	1	-37
22. COc1ccc(OCc2nnc(SCC(=O)N3CCCC3)o2)cc1
  11	9	1.9	3	3628	-2	-23
23. CCCN1CCN(C(=O)CCS(=O)(=O)c2cc3c(cc2Cl)NC(=O)CO3)CC1
  5	4	6.6	4	6932	-7	-12
24. COc1ccc2sc(/C=C/c3ccccc3O)[n+](C)c2c1
  -2	3	3.5	-5	4647	.	-41
25. Cc1ccc(OCCNc2ccc(S(=O)(=O)N3CCCC3)cn2)cc1
  7	-1	-0.8	2	7214	.	-13
26. Cc1nn(-c2ncccn2)c2c1C(=O)CC(C)(C)C2Br (stereo unspecified)
  -7	-10	0.5	6	3059	.	5
27. COC(=O)CN(c1ccc(OC)c(OC)c1)S(C)(=O)=O
  .	.	1.0	4	3165	-4	-31
28. Cc1cc(C)n(/C(=C\N(C)C)C(=O)c2cccc([N+](=O)[O-])c2)n1
  -3	-1	6.0	3	3627	3	-6
29. CCCOc1ccc(N2C(=O)CC(N3CCN(CCN=CC4=C(O)CC(C)(C)CC4=O)CC3)C2=O)cc1 (stereo unspecified)
  14	3	2.5	6	3928	-6	-5
30. Cc1ccc(-c2noc(CCC(=O)NCCN3CCOCC3)n2)cc1
  .	.	1.7	-9	4729	-6	-33
31. O=C(O)c1cc2cccc(S(=O)(=O)N3CCOCC3)c2cc1O
  12	3	0.9	1	4046	5	-16
32. O=C1CSc2ccc(S(=O)(=O)NCc3ccc(Cl)cc3)cc2N1
  5	3	5.9	1	5199	7	-1
33. CCC(C(=O)N(C(C)C)C(C)C)c1ccccc1 (stereo unspecified)
  0	3	-4.6	-4	3870	.	-15
34. CC(=O)Nc1cc(N2C(=O)CCC2=O)ccc1Cl
  0	0	-0.6	0	2398	-15	-7
35. Cc1nc2ccccn2c1C(=O)N/N=C/c1ccccc1Cl
  .	.	.	.	3419	-10	-7
36. CCCC12CN3CCN(CC(C3)C1=NNC(=O)Nc1ccccc1)C2
  10	-1	1.7	1	.	.	.
37. COC(=O)c1sc(NC(=S)NC(=O)c2ccccc2F)nc1C
  1	1	6.0	3	2177	5	-68
38. Cc1cccc(C(=O)Oc2c(Br)cc(Br)cc2C=NNC(=O)c2ccncc2)c1
  4	5	2.9	11	.	.	.
39. CCOC(=O)c1ccc(Oc2nc(NC)nc(SC)n2)cc1
  18	7	1.8	15	9020	1	-9
40. COc1ccc2nc(NC(=O)CSc3nc4ccccc4o3)sc2c1
  4	2	-6.1	5	3154	-5	26
41. CCCCCNC(=O)c1cc(S(=O)(=O)N2CCCC2)ccc1F
  -5	-3	0.9	0	2419	-1	-19
42. COc1cc(C(=O)N/C(=C\c2cn(S(=O)(=O)N(C)C)c3ccccc23)C(=O)N2CCCC2)cc(OC)c1OC
  3	4	3.4	-1	4056	-11	-10
43. CC(C)N1C(=O)CCC1C(=O)NCCc1ccc(Cl)cc1 (stereo unspecified)
  3	2	5.2	-5	6536	0	-11
44. Cc1cc(C)cc(NC(=S)N(Cc2ccc(Cl)cc2)Cc2ccc(C(=O)O)cc2)c1
  11	2	8.3	5	4675	6	-6
45. CC(=O)n1cc([C@H]2C=C(C(=O)N3CCN(Cc4ccc5c(c4)OCO5)CC3)O[C@@H](OCCCCO)C2)c2ccccc21
  0	-2	-15	-6	2890	-4	-10

Some of these compounds in order of molecular weight, smallest number first:
Value order – Mtb hypoxia rep	Mtb hypoxia rep growth	RN4220 kill	Sa ugtP lethal	Autofluor counter	BJeLR viability	PrP UTR inh
37. COC(=O)c1sc(NC(=S)NC(=O)c2ccccc2F)nc1C
  1	1	6.0	3	2177	5	-68
44. Cc1cc(C)cc(NC(=S)N(Cc2ccc(Cl)cc2)Cc2ccc(C(=O)O)cc2)c1
  11	2	8.3	5	4675	6	-6
38. Cc1cccc(C(=O)Oc2c(Br)cc(Br)cc2C=NNC(=O)c2ccncc2)c1
  4	5	2.9	11	.	.	.

Continuation.
Value order – Mtb hypoxia rep	Mtb hypoxia rep growth	RN4220 kill	Sa ugtP lethal	Autofluor counter	BJeLR viability	PrP UTR inh
46. Cc1ccc2nc(C)c(C(=O)NN=Cc3ccco3)cc2c1
  14	10	4.6	1	.	.	.
47. CCOc1ccc(C=NNC(=O)C(OC)c2ccccc2)cc1 (stereo unspecified)
  4	0	5.7	6	.	.	.
48. COCCn1c(SCC(=O)Nc2cccc(OC)c2)nc2c(oc3ccccc32)c1=O
  11	-9	2.8	7	2189	-1	-16
49. Cc1c(C)n(CCN(C)C)c2ncnc(NCc3ccccc3)c12
  14	1	-1.9	-4	3156	-9	10
50. CC(OC(=O)Cn1cnc2c1c(=O)n(C)c(=O)n2C)C(=O)NC1CCCCC1C (stereo unspecified)
  2	2	1.6	-2	6651	-19	-14
51. CCN(Cc1ccccc1)C(=O)CC(=O)N(CC)Cc1ccccc1
  -3	0	-1.5	8	3449	-1	-22
52. CC1CNCCN1S(=O)(=O)c1cccc2cnccc12 (stereo unspecified)
  3&3	10&-2	3.1&3.0	-1&1	5577&5085	-4&-1	-10&-4
53. Cc1[nH]c2ccccc2c1C=NNC(=O)c1cccc(S(=O)(=O)Nc2cccc(C(F)(F)F)c2)c1
  -5	-2	-4.2	-24	.	.	.
54. O=C(CSc1cccc2cccnc12)NN=Cc1ccncc1
  13	4	1.1	1	.	.	.
55. CCOc1ccccc1-c1cc(C(=O)NN=Cc2ccc3c(c2)OCO3)c2ccccc2n1
  -17	-3	4.1	-4	.	.	.
56. Cc1ccc(C(=O)O/N=C(\N)c2ccccn2)cc1Cl
  10	1	-0.1	-1	.	1	3
57. COc1ccc(CNC(=O)CN2C(=O)C(c3ccccc3)Oc3cccnc32)cc1 (stereo unspecified)
  1	-1	3.5	0	4586	-2	-9
58. Cc1ccc2c(c1)nnn2C1CCN(C(=O)NCc2ccccc2)CC1
  -12	-6	2.2	3	2210	-15	-28
59. COc1ccc(C)cc1NS(=O)(=O)c1ccc(Br)s1
  14	6	22	-8	10729	-3	-8
60. CCOC(=O)CCC(=O)NNC(=O)COc1ccc(C(C)C)cc1Br
  1	6	0.3	1	3366	2	-74
61. CCCCOc1ccc(S(=O)(=O)n2c(C)nc3ccccc32)cc1
  9	-7	7.9	53	5429	-2	-20
62. CC(Sc1ccccc1)C(=O)NN=C1CCCC1 (stereo unspecified)
  13	6	2.8	4	4305	-7	-23
63. CC(=NNc1nccnc1Cl)c1ccc(Br)cc1
  6	-6	3.0	2	.	.	.
64. COC(C[C@H](O)CC(=O)COCc1ccccc1)OC
  .	.	.	.	3128	-3	-20
65. O=C1C2C3c4ccccc4C(c4ccccc43)C2C(=O)N1c1nc(-c2ccccc2)cs1 (stereo unspecified)
  3	4	3.8&-7.1	-10&-8	2390	-6	-37
66. Cc1ccc(-c2ncns2)cc1
  -11	1	-0.9	-3	3909	1	-34
67. Cc1cc2c(C)c(C)c(=O)[nH]c2cc1N
  -5	-1	5.9	1	4668	3	-16
68. O=C(CN1CCC(Cc2ccccc2)CC1)N1CCc2ccccc2C1
  -4	1	-4.0	-8	5206	5	-29
69. O=C(CSc1nnc(Cc2ccccc2)o1)c1ccccc1
  0	-6	8.1	3	4007	13	-21
70. Cc1ccc(-c2nc3ccccc3[nH]2)cc1NC(=O)c1ccc2c(c1)OCO2
  14	5	0.2	-7	6998	2	-37
71. O=C1c2sc3nc4ccccc4n3c2C(=O)N1c1ccccc1Cl
  7	5	-11	-2	2399	5	20
72. COCCCNC(=O)c1cc(C(=O)c2c(-c3c(Cl)cccc3Cl)noc2C)c[nH]1
  .	.	1.4	1	2480	7	-25
73. Cc1ccc(-c2noc(CCCC(=O)NCC3CCCO3)n2)cc1 (stereo unspecified)
  15	14	0.5	5	4915	4	-24
74. Cc1cccc(C(C)C)c1NC(=O)c1cc2ccccc2o1
  6	5	-0.2	-6	3166	-15	-2
75. CCOC(=O)Cc1ccc(NC(=O)c2ccc([N+](=O)[O-])cc2)cc1
  -18	3	-0.8	-12	3917	-9	-35
76. COc1cccc(OC)c1OCCCc1c(C)n[nH]c1C
  1	-1	3.3	-1	10100	3	11
77. Cc1ccc(OCC(=O)NCc2ccccn2)cc1
  13	5	9.6	-1	3230	-9	-19
78. CC(C)(C)S(=O)N1Cc2cc(CO)cc(-c3ccccc3)c2[C@H]1CCO (stereo partly specified)
  -10	8	3.4	0	4105	.	-25

Compound activity from PubChem BioAssay.
